# High-throughput results as filed in PubChem BioAssay.
# Sa growth inh: S. aureus growth inhibition; 0.53% of 170,000 active; S. aureus RN4220 growth, OD600, 20 h, 42 °C; stronger effect = lower value; AID 720641; relative growth, % (no concentration beside the values);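 active = growth at 42 °C up to 50% and 20 or more points under that at 30 °C, or under 10% at both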;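 note: 300 nL library stock went into each well; scaled to the means of positive and negative controls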
# HCMV NEC inh: inhibitors of HCMV UL50-UL53 nuclear egress complex interaction; HTRF UL50-UL53 interaction, normalized percent inhibition; inhibition, % (test concentration not listed); 0.15% of 190,000 active; AID 1918969;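 active = both replicates at 50% or more, plus weaker picks with an unusually low signal ratio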;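 note: stock transfer was 100 nL into about 20 µL; 0% = negative control wells and 100% = wells with untagged competitor protein; inactives centre near -12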
# GIV-Gai inh: blocks GIV peptide binding to rat Galpha-i3 | Galpha-i3/FITC-GIV peptide fluorescence polarization, 90 min; stronger effect = lower value; scaled: aluminum fluoride 0%, vehicle 100% | AID 1224905 | percent of control (FP), % (concentration not given with the values) | 0.42% of 210,000 active;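 active = replicate mean at 85% of control or lower, very high polarization wells dropped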;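 note: wells of about 15 µL received 100 nL stock; the first replicate is given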
# Target sequence (P08753 whole entry, looked up): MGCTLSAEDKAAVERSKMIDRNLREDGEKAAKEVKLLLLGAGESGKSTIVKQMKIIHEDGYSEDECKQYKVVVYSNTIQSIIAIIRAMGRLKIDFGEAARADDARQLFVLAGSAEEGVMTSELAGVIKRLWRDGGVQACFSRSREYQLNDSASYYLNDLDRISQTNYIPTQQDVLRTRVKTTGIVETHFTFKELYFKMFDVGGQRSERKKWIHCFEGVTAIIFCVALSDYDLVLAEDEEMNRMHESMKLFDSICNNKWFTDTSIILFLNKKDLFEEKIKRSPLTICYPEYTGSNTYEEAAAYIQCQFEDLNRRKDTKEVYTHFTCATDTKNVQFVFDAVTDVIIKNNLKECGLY
# Sa growth inh second temp: further read-out of Sa growth inh, marked with its call; relative growth, %; measured here: growth at 30 °C;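 optical density after 20 h as mean of two plates; 100% = untreated growth and lower means inhibition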
# Active calls of the source: *; · = no result given; & = joins results of further samples.
SMILES,Sa growth inh,Sa growth inh second temp,HCMV NEC inh,GIV-Gai inh
CN(Cc1ccccc1)C(=O)COC(=O)C1COc2ccccc2O1 (stereo not drawn),101,96,-6,·
FC(F)(F)Oc1ccccc1C=Nc1ccc(Cl)cc1,108,89,·,104
Cc1ccc(NC(=O)CN2C(=O)CCc3ccccc32)cc1C,109,83,·,112
NC(=O)C1(N2CCCCC2)CCN(C(=O)c2[nH]nc3c2CCc2ccccc2-3)CC1,·,·,-8,101
CCOC(=O)CS(=O)(=O)c1ccc2ccccc2c1,104,79,-28,101
Cc1ccccc1NC(=O)Cn1nnc(C(=O)NCCc2ccccc2)c1N,102,86,-5,107
O=C(Nc1ccc(OC(F)(F)F)cc1)Nc1cc(-c2ccccc2)[nH]n1,9,19,9,110
c1cnc(Oc2ccc3oc4ccccc4c3c2)nc1,127,101,1,·
O=C(Nc1c2c(nn1-c1ccc(Cl)cc1)CSC2)c1ccc(S(=O)(=O)N2CCCCC2)cc1,·,·,8,105
CSc1nn(CCc2ccncc2)c(=S)s1,82,71,-2,97
N#CCSc1nc2ccccc2c(=O)n1Cc1ccccc1,101,84,6,100
Fc1ccc(-c2cc3c(SCc4cccc(Br)c4)nccn3n2)cc1,·,·,0,103
Cc1c(C)n(Cc2ccccc2)c2ccc(C(=O)O)cc12,114,102,0,·
COc1cccc(C(=O)NCc2ccc3c(c2)OCO3)c1,94,82,-18,·
COC(=O)C1=C(C)Nc2nnnn2C1c1ccc(Br)cc1 (stereo not drawn),·,·,4,102
C=CCn1c(SCCC(=O)Nc2ccc(S(N)(=O)=O)cc2)nc2sc3c(c2c1=O)CCCC3,·,·,10,104
COc1ccc(/C=C(\C#N)c2ccc(O)cc2)cc1OC,121,78,-8,110
CCOC(=O)C1CCN(c2cc3c(cc2NC(=O)NCC2CCCO2)n(C)c(=O)n3C)CC1 (stereo not drawn),·,·,19,103
CCCc1cc(C(=O)NCc2ccco2)no1,94,93,7,98
Cc1cc2cc(CNC(=O)C3CCCCC3)ccc2n1C,97,86,·,95
CCS(=O)CCSc1nc2ccccc2s1 (stereo not drawn),115,84,-6,98
CCc1ccccc1NC(=O)Cn1nc(C)c2nn(-c3ccc(Cl)cc3)c(C)c2c1=O,104,85,·,106
Cc1cccc(Cn2c(C)c(C)c3cc(C(=O)NCC4CCCO4)ccc32)c1 (stereo not drawn),·,·,-9,104
CCCOc1ccc(/C=C2\C(=O)N(c3ccc(C(=O)OC(C)C)cc3)N=C2C)cc1OC,·,·,-13,99
Cc1ccc(N2C(=O)CC(NCC3CCCO3)C2=O)cc1 (stereo not drawn),·,·,-19,100
# (list continues)
SMILES,Sa growth inh,Sa growth inh second temp,HCMV NEC inh,GIV-Gai inh
COc1ccccc1-c1nnc(C2CCN(S(=O)(=O)c3ccc(S(=O)(=O)N4CCCCCC4)cc3)CC2)o1,103,92,1,111
COc1cc(C)c(C)cc1S(=O)(=O)N1CCc2cc3ccccc3nc21,·,·,-24,111
COCCCNC(=O)c1ccc2c(c1)nc(C)n2-c1cccc(C)c1,103,90,·,98
CCOC(=O)c1c(C)oc(=O)c(Br)c1C,103,99,23,101
CC(=O)Nc1c(C#N)c2nc3ccccc3nc2n1C1CCCCC1,89,72,-18,·
Cc1cccc(-c2nc3c(c(=O)[nH]2)Cc2ccccc2O3)c1,92,84,-18,102
O=C1N=C(N2CCCC2)S/C1=C/c1ccc(-c2ccccc2)o1,105,82,-33,109
O=C(Nc1ccccc1)c1c2c(nc3ccccc13)CCC2,105,71,-20,·
O=c1c(O)c(N2CCN(c3ccc(F)cc3)CC2)c1=O,·,·,-18,100
CCCN(CC1CC1)C(=O)CSc1nnc(-c2ccco2)n1N,88,85,-1,·
Oc1cccc2ccc(Nc3ccc4cccc(O)c4n3)nc12,69,28,1,95
COc1ccc(NC(=O)c2cc(C3CC3)nc3c2c(C)nn3-c2ccccc2)c(OC)c1,78,79,·,98
C=CCn1c(=N)c(C#N)cc2c(=O)n3ccccc3nc21,86,92,·,98
Oc1ccccc1-c1cncn1Cc1ccccc1,109,101,12,109
O=C(CSc1ncnn1CC(=O)c1ccc(Br)cc1)c1ccc(Br)cc1,109,86,-8,·
CCOCCn1ccc2c(OCC(=O)Nc3ccc(C(N)=O)cc3)cccc2c1=O,102,89,·,94
COc1ccccc1NC(=O)c1ccc(C(=O)c2ccccc2)o1,89,58,-58,101
O=C1CCCN2N=C(SCc3cccc(C(F)(F)F)c3)SC2=N1,85,73,-27,98
CC(=O)N1CCN(c2nc(C3CC3)nc3sc4c(c23)CCCC4)CC1,105,109,6,102
CCCS(=O)(=O)Nc1ccc2c(c1)N(C(=O)c1ccccc1)CCC2,·,·,-14,106
O=C(CSc1nc2ncccc2n2cccc12)N1CCN(c2ccccn2)CC1,·,·,-61,153
CNC(=O)CSCc1cnn(-c2ccccc2)c1-n1cccc1,102,86,·,96
COc1cccc(NC(c2nnc(-c3ccccc3)o2)c2ccc(F)cc2Cl)c1 (stereo not drawn),95,87,-9,104
O=C(O)c1ccc2c(c1)no[n+]2[O-],54,42,·,98
C=CCN1Cc2c(sc3c2CCCC3)N(C(=O)c2ccccc2)C1,101,102,-36,105
# More entries follow.
SMILES,Sa growth inh,Sa growth inh second temp,HCMV NEC inh,GIV-Gai inh
CC(=NCc1ccco1)c1c(CSc2ccc(C)cc2)[nH]n(-c2nc3ccccc3s2)c1=O,·,·,-10,104
NC(CC(=O)O)c1ccccc1 (stereo not drawn),84,90,-27,·
COc1cc2[nH]c(=O)n(/N=C/c3ccc(O)c(Br)c3)c(=O)c2cc1OC,93,106,0,·
Cc1cc(-n2c(C)cc(C(=O)COC(=O)c3sccc3C)c2C)no1,164,86,-25,·
O=C(C1CCN(C2=NS(=O)(=O)c3ccccc32)CC1)N1CCc2ccccc21,104,88,-19,·
COc1ccc(-c2nc3nnc(C)n3[nH]2)c(OC)c1,108,94,0,·
CC1(C)OC(c2ccncc2)OC1(C)C,102,27,1,104
O=C(Nc1ccccc1Cl)NC1(C(=O)NCc2cccnc2)CCCCC1,125,85,-13,101
Oc1ccccc1-c1nc2sccn2c1Nc1ccccc1,96,99,-1,104
CCCCn1c(=O)c2sccc2n2c(SCc3ccc(C)cc3)nnc12,·,·,-22,101
COc1ccc(/C=C/C(=O)Nc2ccn(-c3ccccc3)n2)cc1,88,89,-13,·
COc1ccc(C2NC(=O)NC(C)=C2C(=O)OCc2ccc3c(c2)OCO3)cc1OC (stereo not drawn),·,·,16,99
Cc1ccc(F)cc1N1CC(C(=O)O)CC1=O (stereo not drawn),107,85,-44,99
Cc1ccc(C)c(C(=O)CSc2nc3nc(C)cc(C)c3c(=O)[nH]2)c1,94,92,·,103
Cc1ccc(Nc2nnc(SCC(=O)NC(=O)NCc3ccco3)s2)cc1C,82,77,-27,·
COc1ccc(-c2ccnc(SC)n2)cc1,129,86,2,102
N#CCCN(C(=O)Cn1c(Cc2ccccc2)nc2ccccc21)c1ccccc1,111,82,-22,·
COc1ccccc1CNC(=O)Cn1c(=O)oc2ccccc21,85,86,-23,98
CCc1nnc(NC(=O)C2CC(=O)N(c3ccccc3)C2)s1 (stereo not drawn),99,73,-1,102
COc1ccccc1N1CCN(CC(O)COc2ccc(C)cc2C(C)(C)C)CC1 (stereo not drawn),66,30,-36,104
Cc1csc2nc(-c3cccc(NC(=O)c4cccc(F)c4)c3)cn12,83,82,·,102
O=C(Nc1ccccc1F)c1cnc2ccccn2c1=O,·,·,-61,101
CCC1(C)CC(=O)NC1=O (stereo not drawn),98,91,-38&-1&-42,103
Cc1sc2ncnc(NCC(=O)O)c2c1C,105,81,-15,·
COCCCNC(=O)CCn1c(=O)c2ccccc2n(CC(=O)Nc2cc(Cl)ccc2OC)c1=O,106,88,-20,101
# The list continues:
SMILES,Sa growth inh,Sa growth inh second temp,HCMV NEC inh,GIV-Gai inh
CN(C)C(=O)CSc1nnnn1-c1ccccc1,128,98,-14,100
COc1ccc(-n2nc3c(N4CCCC(C(=O)NCc5cccc(F)c5)C4)nnc(C)c3c2C)cc1 (stereo not drawn),94,85,·,126
Cc1sc2nc(CSc3ncnc4sccc34)[nH]c(=O)c2c1C,87,105,-3,·
O=C(NC1CCN(C(=O)C2CCC2)CC1)C1CCCCC1,100,87,-24,101
CC(=O)c1ccc(NC(=O)CCc2c(C)nc3c(c(C)nn3-c3ccc(C)cc3)c2C)cc1,96,98,-5,97
CC(C)(C)n1ccc(-c2cc(F)cc(F)c2O)n1,106,96,5,101
N#Cc1c(NC(=O)c2cc3n(n2)C(C(F)(F)F)CC(c2ccc4c(c2)OCO4)N3)sc2c1CCCC2 (stereo not drawn),·,·,-16,95
O=S(=O)(NCc1ccccc1Cl)c1cccc(S(=O)(=O)N2CCOCC2)c1,101,91,1,99
S=C(SCc1c(Cl)cccc1Cl)N1CCSCC1,105,101,-9,95
C=CCn1c(C)cc(C(=O)CC#N)c1C,73,88,-14,·
COc1ccc(CN(C(=O)/C=C/C(=O)O)C2CC(=O)N(c3ccccc3)C2=O)cc1 (stereo not drawn),99,89,-8,·
O=c1c2ccccc2c2ccccc2c(=O)n1Cc1ccccn1,105,92,·,99
O=C(Nc1ccc2c(c1)C(=O)c1ccccc1C2=O)c1ccc(S(=O)(=O)N2CCc3ccccc32)cc1,·,·,-42,106
CCOC(=O)c1cccc(NC(=O)N2Cc3ccccc3Oc3ncccc32)c1,103,88,-4&-23,109&100
CCOc1ccc(-c2nc3ccccc3c(=O)o2)cc1,106,90,-19,101
Cc1ccc(-c2nc(CS(=O)(=O)CC(=O)N(C)Cc3ccccc3)c(C)o2)cc1,94,87,-1,101
CC(C)Cn1c(=O)c2ccccc2n2c(CCC(=O)N3CCN(c4ccc(F)cc4)CC3)nnc12,99,88,-8,99
NC(=O)c1sc2c(c1N)C(c1ccccc1)CC(=O)N2 (stereo not drawn),93,74,-27,102
Cc1ccccc1C(=O)Nc1nc2nc(C)c(C)c(=O)n2[nH]1,110,96,-1,100
CC1CCCN(c2c3c(nc4ccccc24)CCCC3)C1 (stereo not drawn),78,91,·,105
NC(=O)/C(=C\c1cccs1)c1ccsc1,110,93,-49,98
Cc1ccc(C(=O)NC2CCCCNC2=O)cc1 (stereo not drawn),99,95,-16,100
O=C(NCCCN1CCC(Cc2ccccc2)CC1)c1cnn(-c2ccccc2)c1-n1cccc1,·,·,-24,96
COCCc1nn2c(=O)cc(COC(=O)COc3ccccc3C)nc2s1,100,94,·,107
O=C(O)C1(Cc2nc3ccccc3s2)CCCC1,118,92,-27,·

# Structural class, those above containing bromine (5)
SMILES,Sa growth inh,Sa growth inh second temp,HCMV NEC inh,GIV-Gai inh
Fc1ccc(-c2cc3c(SCc4cccc(Br)c4)nccn3n2)cc1,·,·,0,103
COC(=O)C1=C(C)Nc2nnnn2C1c1ccc(Br)cc1 (stereo not drawn),·,·,4,102
CCOC(=O)c1c(C)oc(=O)c(Br)c1C,103,99,23,101
O=C(CSc1ncnn1CC(=O)c1ccc(Br)cc1)c1ccc(Br)cc1,109,86,-8,·
COc1cc2[nH]c(=O)n(/N=C/c3ccc(O)c(Br)c3)c(=O)c2cc1OC,93,106,0,·

# Complete entries from above. Values in the order: Sa growth inh	Sa growth inh second temp	HCMV NEC inh	GIV-Gai inh
# Profile of CCOc1ccc(-c2nc3ccccc3c(=O)o2)cc1 = 106	90	-19	101
# Profile of O=c1c2ccccc2c2ccccc2c(=O)n1Cc1ccccn1 = 105	92	·	99
# Profile of O=C(O)C1(Cc2nc3ccccc3s2)CCCC1 = 118	92	-27	·
# Profile of CC(=O)c1ccc(NC(=O)CCc2c(C)nc3c(c(C)nn3-c3ccc(C)cc3)c2C)cc1 = 96	98	-5	97
# Profile of C=CCn1c(C)cc(C(=O)CC#N)c1C = 73	88	-14	·

# (further entries)
SMILES,Sa growth inh,Sa growth inh second temp,HCMV NEC inh,GIV-Gai inh
N#Cc1c(Nc2ccccc2)[nH]c(=O)[nH]c1=O,110,91,-25,97
COC(=O)C1=C(O)/C(=C\c2ccc(CNS(=O)(=O)c3ccccc3)o2)N=C1C,100,73,·,125
CC1=C(c2ccc(Cl)cc2)S(=O)(=O)N=C1N1CCN(c2cccc(C)c2)C(C)C1 (stereo not drawn),97,89,-6,99
CCOC(=O)c1c(C)nn(-c2ncccc2NC(=O)CCC(=O)O)c1C,103,93,-16,107
N#CC1(c2ccccc2)CCC(NCCCn2cnc3ccccc32)CC1 (stereo not drawn),87,88,7,·
O=C(Cn1c(=O)c2cccn2c2cccnc21)NCc1cccc(Cl)c1,·,·,35,101
CCOC(=O)c1cnc2c(c(C)nn2C)c1N1CCC(n2cccc2)CC1,91,86,-24,105
COc1ccc(Nc2nc(N3CCOCC3)nc(N3CCOCC3)n2)cc1,·,·,12,105
Cc1ccc(CN(Cc2ccco2)C(=O)c2ccc(Cl)cc2)o1,84,90,-4,103
CCc1ccccc1NC(=O)N1CCN(c2nnc(C)c3c(C)n(-c4ccc(C)cc4)nc23)CC1,102,89,8,108
O=C(Nc1ccc(-c2nc3ccccc3o2)c(O)c1)c1ccccc1,111,89,·,99
COc1ccc(-c2nc3ccc(NS(=O)(=O)c4ccc(C)cc4)cc3o2)cc1,96,86,-23,99
COc1cc(OC)cc(C(=O)N(CCCN2C(=O)c3cccc4cccc(c34)C2=O)c2cccc(OC)c2)c1,·,·,-10,102
O=C(c1cnc2ccccc2c1Nc1ccc(F)c(Cl)c1)N1CCOCC1,·,·,-23,96
O=C(c1ccncc1)N1C(=O)c2cccc3cccc1c23,119,91,-50,101
O=S1(=O)CCn2c(ncnc2=Nc2cccc(C(F)(F)F)c2)N1,96,92,-29,·
